PDI turbidity: PDI (human) enzyme inhibition; 0.052% of 350,000 active; P07237; PDI insulin aggregation turbidity, A650, 90 min; inhibition, % at 10 µM;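 active means mean inhibition across replicates of 30% or more, whatever share of single replicates reach that level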;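 further: absorbance from insulin aggregation driven by PDI reduction with DTT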
Target sequence (P07237 whole entry, looked up): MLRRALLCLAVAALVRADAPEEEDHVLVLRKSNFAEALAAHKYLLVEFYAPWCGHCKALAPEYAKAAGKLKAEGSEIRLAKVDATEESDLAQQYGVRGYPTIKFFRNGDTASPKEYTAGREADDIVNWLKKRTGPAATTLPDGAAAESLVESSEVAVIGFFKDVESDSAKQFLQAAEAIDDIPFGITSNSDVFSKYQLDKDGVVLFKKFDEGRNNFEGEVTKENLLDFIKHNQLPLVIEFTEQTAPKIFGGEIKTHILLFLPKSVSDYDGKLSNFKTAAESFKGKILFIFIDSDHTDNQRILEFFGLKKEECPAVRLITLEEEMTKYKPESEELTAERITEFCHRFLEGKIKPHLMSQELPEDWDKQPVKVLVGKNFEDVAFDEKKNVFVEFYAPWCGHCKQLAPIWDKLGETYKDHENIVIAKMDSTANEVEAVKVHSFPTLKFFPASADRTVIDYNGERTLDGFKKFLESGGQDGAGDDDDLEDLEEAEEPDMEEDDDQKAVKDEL
Cardio protect: protects H9c2 cardiomyocytes from peroxide injury; H2O2 injury protection, ATPLite, 2 h; protection from H2O2 cell death, % at 20 µM; 0.63% of 360,000 active; AID 588492;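 active means compounds giving at least 50% protection of heart cells from peroxide-induced death in the single-dose screen, raw or plate-pattern-corrected value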;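 further: 0% = DMSO wells with peroxide and 100% = DMSO wells without peroxide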
CaV13 ICDI inh: Disruptors of the CACNA1D IQ motif to Ca2+-dependent inactivation inhibitor domain association, primary screening, Förster resonance energy transfer in intact living …; HEK cells, CFP/YFP FRET ICDI-IQ, plate reader, 10 min; percent FRET-ratio fall versus neutral wells; inhibition, % at 12.3 µM; 0.098% of 340,000 active; AID 743397;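 active means mean replicate inhibition of at least 30% and at least 1% of replicates passing that level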;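 further: 0% = median of the neutral control wells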
hiPSC survival: enhancers of human iPSC single-cell survival; AID 602274; hiPSC single-cell survival, ATPlite luminescence; 100% = ROCK inhibitor wells, 0% = DMSO; 0.044% of 360,000 active; survival enhancement, % at 20 µM; in the data active means survival enhancement above about 18%;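 further: cells exposed to compounds for 16 hours before the ATP read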
HTR2A ag: activates the mouse 5-HT2A serotonin receptor; 0.66% of 360,000 active; activation, % at 7.6 µM; AID 624169; CHO-K1 mHTR2A beta-arrestin complementation, luminescence; percent of 30 µM serotonin response; P35363;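 active means activation above a run cutoff, the mean activation of all tested compounds plus 3 SD, cut at about 14% in these data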;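 further: 0% = plate median of compound wells and 100% = 30 µM serotonin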
Target sequence (P35363 whole entry, looked up): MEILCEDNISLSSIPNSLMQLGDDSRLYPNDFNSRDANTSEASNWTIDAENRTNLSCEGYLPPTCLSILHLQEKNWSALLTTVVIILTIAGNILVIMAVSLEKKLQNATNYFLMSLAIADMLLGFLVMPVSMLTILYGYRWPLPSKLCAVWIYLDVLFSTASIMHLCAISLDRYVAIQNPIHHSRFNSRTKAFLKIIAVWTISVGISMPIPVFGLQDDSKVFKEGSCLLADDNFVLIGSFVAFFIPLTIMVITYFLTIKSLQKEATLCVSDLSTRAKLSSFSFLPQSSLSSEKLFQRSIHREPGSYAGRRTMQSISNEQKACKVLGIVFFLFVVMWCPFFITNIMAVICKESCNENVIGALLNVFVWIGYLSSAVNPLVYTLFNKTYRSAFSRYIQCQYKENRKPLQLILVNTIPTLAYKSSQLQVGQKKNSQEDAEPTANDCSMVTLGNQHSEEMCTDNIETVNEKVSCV
Shn3 3UTR inh: inhibitors of Schnurri-3 3'UTR reporter in osteoblasts | Clone20 osteoblast Shn3 3'UTR firefly luciferase, 24 h | inhibition, % at 12.5 µM | 0.52% of 360,000 active;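 active means mean inhibition of at least 75% with every replicate also reaching 75%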;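 further: 0% = median of neutral control wells and 100% = pilot-screen positive control compound; some compounds past the cut are filed as inactive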
* marks the source's active call; other numbers are inactive results; & = joins results of further samples. This is a subset (hit frequency here may not be typical).

How did CCOC(=O)C1CCN(c2ncnc3c2cnn3-c2ccc(Cl)cc2)CC1 do in these assays?
PDI turbidity: 0.4; Cardio protect: -14.0; CaV13 ICDI inh: -9.6; hiPSC survival: -1.4; HTR2A ag: 2.6; Shn3 3UTR inh: 35.0

Results for O=C1C(CCS(=O)c2ccccc2)C(=O)N(c2ccccc2)N1c1ccccc1 (centres undefined) ?
PDI turbidity: 5.3; Cardio protect: 4.2; CaV13 ICDI inh: -4.3; hiPSC survival: 3.7; HTR2A ag: 4.4; Shn3 3UTR inh: -18.7

How did COc1cccc(Nc2nc(NCC3CCCO3)c3ccccc3n2)c1 (centres undefined) do in these assays?
PDI turbidity: 10.7; Cardio protect: 0.4; CaV13 ICDI inh: -6.2; hiPSC survival: -1.0; HTR2A ag: -10.7; Shn3 3UTR inh: 87.7*

How did CC1(c2ccccc2)CC(C)(C)N(C(=O)CSc2nnc(N)s2)c2ccccc21 (centres undefined) do in these assays?
PDI turbidity: -2.3; Cardio protect: 5.9; CaV13 ICDI inh: -2.7; hiPSC survival: -0.7; HTR2A ag: 2.0; Shn3 3UTR inh: 27.5

Results for CC(C)[N+]1(C)[C@@H]2CC[C@H]1CC(OC(=O)C(CO)c1ccccc1)C2 (some centres undefined) ?
PDI turbidity: 14.9&-5.6&0.2; Cardio protect: 0.1&5.5&12.3; CaV13 ICDI inh: -4.3&-5.5; hiPSC survival: -1.3&0.7&-0.5; HTR2A ag: 0.2&-0.2&3.8; Shn3 3UTR inh: -1.5&-5.6&2.3

How did CC(C)n1c(/C=C/[C@@H](O)C[C@@H](O)CC(=O)O)c(-c2ccc(F)cc2)c2ccccc21 do in these assays?
PDI turbidity: 1.6; Cardio protect: 7.4; CaV13 ICDI inh: -4.5; hiPSC survival: -1.3; HTR2A ag: 3.9; Shn3 3UTR inh: 84.8

Results for CCCNCC(O)COc1ccccc1C(=O)CCc1ccccc1 (centres undefined) ?
PDI turbidity: -5.9; Cardio protect: -8.1; CaV13 ICDI inh: -4.2; hiPSC survival: -1.6; HTR2A ag: -1.4; Shn3 3UTR inh: 3.1

How did O=C(Nc1nc(-c2cccs2)cs1)c1ccc(Cl)s1 do in these assays?
PDI turbidity: -5.1; Cardio protect: -6.8; CaV13 ICDI inh: 3.3; hiPSC survival: -3.0; HTR2A ag: -3.1; Shn3 3UTR inh: -26.0

What do the screens show for `COc1cccc(NC(=O)CCN2C(=O)c3ccccc3Sc3ncccc32)c1`?
PDI turbidity: 11.2; Cardio protect: 2.7; CaV13 ICDI inh: -6.9; hiPSC survival: 1.1; HTR2A ag: -2.3; Shn3 3UTR inh: -7.0

Results for Cc1cnc(C(=O)NCCc2ccc(S(=O)(=O)NC(=O)NC3CCCCC3)cc2)cn1 ?
PDI turbidity: 1.8; Cardio protect: 4.5; CaV13 ICDI inh: -4.5; hiPSC survival: -1.7; HTR2A ag: -6.2; Shn3 3UTR inh: -10.1

Results for Cc1cc(N2C(=O)C(O)=C(C(=O)c3cc4ccccc4o3)C2c2cccc(Cl)c2)no1 (centres undefined) ?
PDI turbidity: -5.4; Cardio protect: 6.4; CaV13 ICDI inh: -1.8; hiPSC survival: -0.4; HTR2A ag: 3.8; Shn3 3UTR inh: -52.9

How did O=C1CN(/N=C/c2ccc([N+](=O)[O-])o2)C(=O)N1 do in these assays?
PDI turbidity: 7.3; Cardio protect: 6.1; CaV13 ICDI inh: -6.5; hiPSC survival: 3.1; HTR2A ag: 3.6; Shn3 3UTR inh: -7.0

What do the screens show for `Cc1cc(N2C(=O)C(O)=C(C(=O)c3cc4ccccc4o3)C2c2cccs2)no1` (centres undefined)?
PDI turbidity: -4.1; Cardio protect: 6.8; CaV13 ICDI inh: -2.0; hiPSC survival: 0.2; HTR2A ag: 0.4; Shn3 3UTR inh: -26.4

What do the screens show for `O=S(=O)(Nc1nnc(-c2ccccc2)s1)c1ccc(Cl)cc1`?
PDI turbidity: 1.7; Cardio protect: -12.8; hiPSC survival: -6.1; HTR2A ag: -2.7; Shn3 3UTR inh: -13.7

What do the screens show for `COCCCn1c(C)nnc1SCC(=O)NNC(=O)COc1ccc(Cl)cc1`?
PDI turbidity: -5.0; Cardio protect: -2.7; CaV13 ICDI inh: -4.5; hiPSC survival: -0.8; HTR2A ag: 4.6; Shn3 3UTR inh: -2.1

Results for COC(=O)c1c(NC(NC(=O)C(C)C)C(Cl)(Cl)Cl)sc2c1CCCC2 (centres undefined) ?
PDI turbidity: -3.4; Cardio protect: 3.0; CaV13 ICDI inh: -4.9; hiPSC survival: 1.5; HTR2A ag: 1.4; Shn3 3UTR inh: 8.0

How did O=C(NCC1CCCCN1)c1cc(OCC(F)(F)F)ccc1OCC(F)(F)F (centres undefined) do in these assays?
PDI turbidity: -3.2; Cardio protect: 6.9; CaV13 ICDI inh: -4.5; hiPSC survival: 4.3; HTR2A ag: 0.8; Shn3 3UTR inh: 15.4

What do the screens show for `Cc1onc(-c2c(F)cccc2Cl)c1C(=O)Nc1nnc(C(F)(F)F)s1`?
PDI turbidity: -0.9; Cardio protect: -14.2; CaV13 ICDI inh: -5.2; hiPSC survival: -0.4; HTR2A ag: 7.4; Shn3 3UTR inh: 21.0

How did COc1cccc(C2/C(=C(/O)c3ccc4c(c3)OCO4)C(=O)C(=O)N2CCN2CCOCC2)c1 (centres undefined) do in these assays?
PDI turbidity: 11.2; Cardio protect: 0.7; CaV13 ICDI inh: -6.0; hiPSC survival: 0.2; HTR2A ag: 2.5; Shn3 3UTR inh: 2.8

How did COC(=O)c1ccc(C2C(C(=O)c3cc4ccccc4o3)=C(O)C(=O)N2c2cc(C)on2)cc1 (centres undefined) do in these assays?
PDI turbidity: 6.4; Cardio protect: 1.3; CaV13 ICDI inh: -3.5; hiPSC survival: 0.4; HTR2A ag: 0.8; Shn3 3UTR inh: -4.0

What do the screens show for `CN(C)C(=O)C(CCN1CCC(O)(c2ccc(Cl)cc2)CC1)(c1ccccc1)c1ccccc1`?
PDI turbidity: 1.3; Cardio protect: -7.4; CaV13 ICDI inh: -5.0; hiPSC survival: -5.1; HTR2A ag: -11.6; Shn3 3UTR inh: 10.8

What do the screens show for `CC(=O)[C@H]1CC[C@H]2[C@@H]3CCC4=CC(=O)CC[C@]4(C)[C@H]3CC[C@]12C`?
PDI turbidity: 12.1&-6.6; Cardio protect: -11.5&-15.1; CaV13 ICDI inh: -5.0&-4.6; hiPSC survival: 2.7&4.6; HTR2A ag: -0.1&0.6; Shn3 3UTR inh: 5.6&-5.3

What do the screens show for `COc1ccc2cc(C(C)C(=O)O)ccc2c1` (centres undefined)?
PDI turbidity: 9.8; Cardio protect: 1.2; CaV13 ICDI inh: -4.8; hiPSC survival: -1.2; HTR2A ag: 4.7; Shn3 3UTR inh: -8.8

What do the screens show for `Nc1ccccc1-c1nc2ccccc2c(=O)o1`?
PDI turbidity: -1.0; Cardio protect: -0.2; CaV13 ICDI inh: -5.2; hiPSC survival: -0.2; HTR2A ag: -4.6; Shn3 3UTR inh: -17.0

How did Cc1ccc(C)c(-c2ccc(=O)n(Cc3cccc(Br)c3)n2)c1 do in these assays?
PDI turbidity: -13.6; Cardio protect: -10.2; CaV13 ICDI inh: -5.0; hiPSC survival: 2.0; HTR2A ag: -1.8; Shn3 3UTR inh: 12.1

Results for Nc1ccn([C@H]2CS[C@@H](CO)O2)c(=O)n1 ?
Cardio protect: 5.8; hiPSC survival: 1.1; HTR2A ag: -3.0; Shn3 3UTR inh: -2.8

How did O=C(Nc1ccc(Cc2ccncc2)cc1)c1ccc(Cl)c([N+](=O)[O-])c1 do in these assays?
PDI turbidity: -6.8; Cardio protect: -18.3; hiPSC survival: -1.2; HTR2A ag: 2.0; Shn3 3UTR inh: -3.5

What do the screens show for `Cc1ccc(-c2cc(-c3n[nH]c(=S)o3)c3ccccc3n2)cc1`?
PDI turbidity: 3.4; Cardio protect: -13.8; CaV13 ICDI inh: -8.3; hiPSC survival: -0.9; HTR2A ag: 5.4; Shn3 3UTR inh: 17.5

Results for O=C1C(=O)N(CCN2CCOCC2)C(c2cccc(Cl)c2)/C1=C(/O)c1ccc2c(c1)OCO2 (centres undefined) ?
PDI turbidity: -0.9; Cardio protect: 2.6; hiPSC survival: -0.3; HTR2A ag: 8.1; Shn3 3UTR inh: -26.4

What do the screens show for `C=CCOc1cccc(C2C(C(=O)c3cc4ccccc4o3)=C(O)C(=O)N2c2cc(C)on2)c1` (centres undefined)?
PDI turbidity: -7.7; Cardio protect: 5.5; CaV13 ICDI inh: -4.0; hiPSC survival: -0.1; HTR2A ag: 2.5; Shn3 3UTR inh: -68.7

Results for CCOC(=O)c1ccc(NC(=O)c2ccc(C)c(S(=O)(=O)N3CCOCC3)c2)cc1 ?
PDI turbidity: -1.7; Cardio protect: -2.6; CaV13 ICDI inh: -2.3; hiPSC survival: 0.4; HTR2A ag: 4.8; Shn3 3UTR inh: 42.2

How did O=C(/C=C/c1cccc(C(F)(F)F)c1)Nc1cccc(C(F)(F)F)c1 do in these assays?
PDI turbidity: -9.5; Cardio protect: -20.1; hiPSC survival: -0.8; HTR2A ag: -4.5; Shn3 3UTR inh: 47.2

What do the screens show for `CC(C)NC[C@H](O)COc1cccc2[nH]ccc12`?
PDI turbidity: 3.8; Cardio protect: 3.2; CaV13 ICDI inh: -4.7; hiPSC survival: -1.5; HTR2A ag: -2.8; Shn3 3UTR inh: 26.6

How did Cc1ccc2cc(C)c3nnc(SCC(=O)N4CCN(C(=O)c5ccco5)CC4)n3c2c1 do in these assays?
PDI turbidity: 1.6; Cardio protect: 48.4; hiPSC survival: 3.7; HTR2A ag: 2.0; Shn3 3UTR inh: 1.7

How did O=C(NNC(=O)c1cc(Cl)ccc1O)c1cccs1 do in these assays?
PDI turbidity: 10.7; Cardio protect: 1.4; CaV13 ICDI inh: -1.6; hiPSC survival: -0.4; HTR2A ag: -2.0; Shn3 3UTR inh: -24.4

Arranged by SMILES length (highest first): 3 of the compounds above.
What do the screens show for `C=CCOc1cccc(C2C(C(=O)c3cc4ccccc4o3)=C(O)C(=O)N2c2cc(C)on2)c1` (centres undefined)?
PDI turbidity: -7.7; Cardio protect: 5.5; CaV13 ICDI inh: -4.0; hiPSC survival: -0.1; HTR2A ag: 2.5; Shn3 3UTR inh: -68.7

How did Cc1ccc2cc(C)c3nnc(SCC(=O)N4CCN(C(=O)c5ccco5)CC4)n3c2c1 do in these assays?
PDI turbidity: 1.6; Cardio protect: 48.4; hiPSC survival: 3.7; HTR2A ag: 2.0; Shn3 3UTR inh: 1.7

How did O=C(/C=C/c1cccc(C(F)(F)F)c1)Nc1cccc(C(F)(F)F)c1 do in these assays?
PDI turbidity: -9.5; Cardio protect: -20.1; hiPSC survival: -0.8; HTR2A ag: -4.5; Shn3 3UTR inh: 47.2

Gathered by group, those above with four or more nitrogen atoms.
How did CCOC(=O)C1CCN(c2ncnc3c2cnn3-c2ccc(Cl)cc2)CC1 do in these assays?
PDI turbidity: 0.4; Cardio protect: -14.0; CaV13 ICDI inh: -9.6; hiPSC survival: -1.4; HTR2A ag: 2.6; Shn3 3UTR inh: 35.0

How did COc1cccc(Nc2nc(NCC3CCCO3)c3ccccc3n2)c1 (centres undefined) do in these assays?
PDI turbidity: 10.7; Cardio protect: 0.4; CaV13 ICDI inh: -6.2; hiPSC survival: -1.0; HTR2A ag: -10.7; Shn3 3UTR inh: 87.7*

How did CC1(c2ccccc2)CC(C)(C)N(C(=O)CSc2nnc(N)s2)c2ccccc21 (centres undefined) do in these assays?
PDI turbidity: -2.3; Cardio protect: 5.9; CaV13 ICDI inh: -2.7; hiPSC survival: -0.7; HTR2A ag: 2.0; Shn3 3UTR inh: 27.5

Results for Cc1cnc(C(=O)NCCc2ccc(S(=O)(=O)NC(=O)NC3CCCCC3)cc2)cn1 ?
PDI turbidity: 1.8; Cardio protect: 4.5; CaV13 ICDI inh: -4.5; hiPSC survival: -1.7; HTR2A ag: -6.2; Shn3 3UTR inh: -10.1

How did O=C1CN(/N=C/c2ccc([N+](=O)[O-])o2)C(=O)N1 do in these assays?
PDI turbidity: 7.3; Cardio protect: 6.1; CaV13 ICDI inh: -6.5; hiPSC survival: 3.1; HTR2A ag: 3.6; Shn3 3UTR inh: -7.0

What do the screens show for `COCCCn1c(C)nnc1SCC(=O)NNC(=O)COc1ccc(Cl)cc1`?
PDI turbidity: -5.0; Cardio protect: -2.7; CaV13 ICDI inh: -4.5; hiPSC survival: -0.8; HTR2A ag: 4.6; Shn3 3UTR inh: -2.1

What do the screens show for `Cc1onc(-c2c(F)cccc2Cl)c1C(=O)Nc1nnc(C(F)(F)F)s1`?
PDI turbidity: -0.9; Cardio protect: -14.2; CaV13 ICDI inh: -5.2; hiPSC survival: -0.4; HTR2A ag: 7.4; Shn3 3UTR inh: 21.0

How did Cc1ccc2cc(C)c3nnc(SCC(=O)N4CCN(C(=O)c5ccco5)CC4)n3c2c1 do in these assays?
PDI turbidity: 1.6; Cardio protect: 48.4; hiPSC survival: 3.7; HTR2A ag: 2.0; Shn3 3UTR inh: 1.7
